D2 potentiator – potentiates the human D2 dopamine receptor allosterically. DiscoveRx D2 beta-arrestin cells, luminescence, 90 min; 100% = 57 uM dopamine signal. AID 624464. 360,000 compounds, 0.23% hits. potentiation, % (test concentration not listed); active = potentiation of 50% or more; inconclusive = 30% to 50%; inactive = 30% or less;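 further: compound concentration not given in the record; tested on top of an EC20 dose of dopamine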
Target sequence (P14416 whole entry, looked up): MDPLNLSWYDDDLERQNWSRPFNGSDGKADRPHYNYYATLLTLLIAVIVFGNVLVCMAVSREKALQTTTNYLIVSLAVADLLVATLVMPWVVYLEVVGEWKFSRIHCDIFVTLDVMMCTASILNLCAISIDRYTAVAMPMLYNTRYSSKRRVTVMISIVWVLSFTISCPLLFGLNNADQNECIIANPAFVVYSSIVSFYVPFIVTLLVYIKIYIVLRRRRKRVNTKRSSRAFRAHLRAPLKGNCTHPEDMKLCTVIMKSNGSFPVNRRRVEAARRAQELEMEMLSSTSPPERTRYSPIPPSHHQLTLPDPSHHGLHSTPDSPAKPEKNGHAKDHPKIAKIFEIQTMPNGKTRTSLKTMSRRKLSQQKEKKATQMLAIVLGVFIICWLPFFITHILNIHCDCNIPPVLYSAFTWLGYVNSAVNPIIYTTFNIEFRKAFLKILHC
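PathHunter D2 cells, attached overnight at 37 deg C, received compound in DMSO plus dopamine at EC20 (50 nM final) for 90 min at 37 deg C. Beta-arrestin recruitment was read as luminescence after 1 h with detection reagent at ambient temperature.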
TRPML1 blocker – inhibitors of human TRPML1 channel; 390,000 compounds, 0.02% hits; TRPML1-inducible cells, Ca2+ dye fluorescence, FDSS; active compounds read low; inhibition of EC80 agonist-evoked calcium signal; activity change, negative = inhibition, % (test concentration not listed); in the data active means activity change below about -50%; inconclusive means about -30% to -50%; inactive means above about -30%;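 further: stimulus is agonist 54-4 at its EC80 concentration; on the % scale 0 is the no-effect control and ±100 the full control effect; compound concentration not given in the record; the text of the record puts the active cut at -80%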
Target sequence (Q9GZU1 whole entry, looked up): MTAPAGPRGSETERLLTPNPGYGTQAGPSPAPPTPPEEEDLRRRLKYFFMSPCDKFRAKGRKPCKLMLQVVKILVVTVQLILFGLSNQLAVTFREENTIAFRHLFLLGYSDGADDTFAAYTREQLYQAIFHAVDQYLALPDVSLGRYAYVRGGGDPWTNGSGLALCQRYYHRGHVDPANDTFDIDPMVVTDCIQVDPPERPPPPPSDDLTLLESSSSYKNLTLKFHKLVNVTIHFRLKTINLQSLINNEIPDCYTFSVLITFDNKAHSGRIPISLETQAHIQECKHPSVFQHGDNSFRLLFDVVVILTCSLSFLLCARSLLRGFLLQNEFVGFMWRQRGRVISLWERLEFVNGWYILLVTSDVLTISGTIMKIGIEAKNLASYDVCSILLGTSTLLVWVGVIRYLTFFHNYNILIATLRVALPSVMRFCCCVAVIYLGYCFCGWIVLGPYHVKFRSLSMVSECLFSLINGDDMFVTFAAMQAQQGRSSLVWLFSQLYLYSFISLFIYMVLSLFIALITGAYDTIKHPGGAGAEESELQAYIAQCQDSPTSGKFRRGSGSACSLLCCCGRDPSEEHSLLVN
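Tet-induced TRPML1-DL cells loaded with Ca8 no-wash calcium dye were read kinetically on FDSS. Compound addition was followed by EC80 agonist 54-4 (4 uM final); inhibition was read over 110 s.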
Six1-Eya2 inh – inhibitors of human Six1/Eya2 interaction; Q15475+O00167; AlphaScreen GST-Six1/His-Eya2 binding, biochemical; active compounds read low; control for the full effect not named in the record; activity change, % (test concentration not listed); 360,000 compounds, 0.56% hits; in the data active = activity change below about -65%; inconclusive = about -30% to -65%; inactive = above about -30%; further: on the % scale 0 is the no-effect control and ±100 the full control effect
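Six1/Eya2 binding was read as AlphaScreen signal after compounds were pinned into GST-Six1 plus His-tagged Eya2 (5X stock 250/500 nM) in pH 8.0 Tris/NaCl/TCEP buffer, beads added, then incubated 1 h, 37 C, dark.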
TRPML1 ag – activates the human TRPML1 channel | TRPML1-expressing cells, Ca2+ dye fluorescence, FDSS; host cell line not named in the record; reference of the full effect not given here | activation, % (test concentration not listed) | Q9GZU1 | 410,000 compounds, 0.12% hits; in the data active = activation above about 50%; inconclusive = about 30% to 50%; inactive = below about 30%; further: 0% is about no effect; the text of the record puts the active cut at 80%
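Cells: TRPML1-DL, 1X Tet inducer, ~16 h at 37 degrees C/5% CO2. Dye: ABD Ca8 no-wash + quencher, 45-90 min RT. Read: 10 s baseline, compound add, 110 s agonist phase; 54-4 EC80 (4uM final), 110 s antagonist phase.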
PINK1 expr mod – modulators of PINK1 expression; AID 624263; 410,000 compounds, 0.2% hits; Potency, µM (doses to about 76.6 µM), for inactives: at the top dose activation (PINK1 increase), hits mostly activators; PINK1 immunofluorescence, high-content cytometry, 24 h; active = well fitted activation curve with a large enough effect; inconclusive = small, poorly fitted or top-dose-only effect; inactive = flat fitted curve, though single readings scatter; cell line not stated here;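 further: potency means the concentration at half of the fitted maximal effect; % of control where 0% means no effect; nearly all actives have a fitted effect of over 65% in size; a mitochondrial uncoupler was the plate control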
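PINK1 protein level read as immunofluorescence by microplate cytometer in a fixed, stained stable cell line after 24 h exposure to five compound concentrations, with CCCP as control.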
D2 agonist – agonists of human D2 dopamine receptor (beta-arrestin). P14416. AID 624465. 360,000 compounds, 0.084% hits. DiscoveRx PathHunter D2 beta-arrestin, luminescence, 90 min; 100% = 57 uM dopamine signal. activation, % (test concentration not listed); in the data active = activation above about 40%; inconclusive = about 15% to 40%; inactive = below about 15%; further: compound concentration not given in the record; the text of the record calls up to 30% inactive
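Agonist mode: compounds alone added to overnight-plated D2 PathHunter cells for 90 min at 37 C, with 57 uM final dopamine (EC100) defining full response. Beta-arrestin recruitment detected by chemiluminescent reagent, read after 1 h at ambient temperature.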
Numbers without * were called inactive; u = inconclusive; x = not tested or not shown; & = joins results of further samples; [ ] = remark or other dose.

SMILES	D2 potentiator	TRPML1 blocker	Six1-Eya2 inh	TRPML1 ag	PINK1 expr mod	D2 agonist
O=C(COc1ccc(Br)cc1Cl)N1CCN(c2ncccn2)CC1	-2.0	-7.6	-0.5	0.6	-0.2%	1.5
CN(C)c1ccc(NC(=O)CN2CCC(O)(c3ccccc3)CC2)cc1	-17.1	-7.0	-6.9	-0.1	0.5%	2.2
CCOC(=O)c1cc(-c2ccc(/C=N\n3cnnc3)o2)ccc1Cl	5.5	46.5	-13.6	-0.7	3.2%	-0.1
CC(=O)NC(c1ccc(C)cc1)c1cc(Cl)c2cccnc2c1O (stereo unspecified)	-12.1	7.8	u	1.3	-1.8%	-15.0
O=C(c1ccco1)N1CCN(Cc2nnc(-c3ccccc3)o2)CC1	-5.2	1.2	3.6	0.4	0.5%	8.2
O=C1CSC(c2ccc(Cl)cc2Cl)N1c1ccccn1 (stereo unspecified)	-1.5	8.0	6.6	3.8	1.1%	-4.1
Cc1cccc(NC(=O)CSc2nnc([C@@H](N)Cc3ccccc3)o2)c1C	3.1	-5.5	1.3	-1.0	-3.4%	-0.9
COc1cc(C2C3=C(CC(C)(C)CC3=O)OC(N)=C2[N+](=O)[O-])ccc1O (stereo unspecified)	-3.6	9.3	1.2	0.0	3.5%	-2.4
Cc1cc(C)c2cc(C)c(SCC(=O)NCc3ccco3)nc2c1	-3.7	20.9	-18.0	4.3	3.2%	1.3
Cc1c(C)n2c(SCC(=O)N3CCC(C)CC3)nnc2[nH]c1=O	0.3	-3.9	7.0	-0.5	2.1%	-2.2
Cc1cccc(C)c1NC(=O)N1CC=CCC1	-3.5	-12.6	4.1	0.3	-2.4%	-16.6
COc1cc(C(=O)O)c2c(c1C)OC(=O)c1c(C)cc(O)c(C=O)c1O2	-21.8	x	4.0	x	2.1%	-6.9
COCCCNC(=O)/C(C#N)=C/c1ccc(F)cc1	-2.7	1.6	4.9	0.0	0.2%	-1.3
Cc1cccc(N2CCN(S(=O)(=O)c3c(C)noc3/C=C/N(C)C)CC2)c1C	-4.3	-13.0	0.2	-0.3	5.0%	-1.2
CC(=O)Nc1ccc(Nc2cc(C)nc3c(-c4ccccc4)c(C)nn23)cc1	-14.9	-1.1	6.3	0.6	1.6%	-0.8
O=C(CSc1nc2ccccc2c(=O)n1-c1ccccc1)N1CCN(CCO)CC1	-20.7	-11.4	7.5	3.2	1.6%	-2.9
CCn1nc(NS(=O)(=O)c2ccc([N+](=O)[O-])cc2)c2cc3ccc(C)cc3nc21	-4.3	19.4	u	0.3	1.9%	0.5
O=C(Nc1ccc(Cl)c(C(F)(F)F)c1)C(=O)N1CCCCC1	-19.6	-7.5	13.4	1.4	3.9%	-5.2
O=C(NNC(=O)c1ccccc1O)c1ccc(Cl)c(S(=O)(=O)N2CCCCC2)c1	-2.2	-8.3	-10.8	-0.2	4.0%	-7.5
Cc1cccc(C(=O)NCCC(=O)Nc2ccc(C#N)cc2)c1	-8.1	-5.6	-7.4	0.1	1.0%	6.5
O=C(NCC(=O)N1CCN(C(=O)c2ccco2)CC1)c1ccc(Cl)cc1	-10.6	12.1	-11.1	-0.1	1.3%	-4.0
COc1cc(-c2cc(NC=O)c3ncc(-c4cccc(C(=O)N(C)C)c4)n3c2)cc(OC)c1OC	12.7	x	-14.3	-0.6	7.7%	-5.2
O=C(COC(=O)c1cncc(Br)c1)Nc1nc(-c2ccc(F)cc2)cs1	1.8	15.2	-0.4	0.8	7.9%	-3.6
C[C@@H]1CN([C@H](C)CO)C(=O)CCCn2nncc2CO[C@H]1CN(C)S(=O)(=O)c1ccc(Cl)cc1	-4.0	-9.3	2.9	-0.7	-1.1%	-2.6
CCOC(=O)c1c(O)c2ccccc2oc1=O	-5.0	-7.0	7.5	1.1	1.1%	-1.6

In the list so far, these have a cyano group:
SMILES	D2 potentiator	TRPML1 blocker	Six1-Eya2 inh	TRPML1 ag	PINK1 expr mod	D2 agonist
COCCCNC(=O)/C(C#N)=C/c1ccc(F)cc1	-2.7	1.6	4.9	0.0	0.2%	-1.3
Cc1cccc(C(=O)NCCC(=O)Nc2ccc(C#N)cc2)c1	-8.1	-5.6	-7.4	0.1	1.0%	6.5

Further entries follow.
SMILES	D2 potentiator	TRPML1 blocker	Six1-Eya2 inh	TRPML1 ag	PINK1 expr mod	D2 agonist
COc1ccc(CNC(=O)CCCn2nc(C)c3c(C)n(-c4ccccc4)nc3c2=O)cc1	-7.4	-1.6&42.6	2.0	1.0&1.0	0.0%&0.1%	5.8
COc1ccc(C2C(C#N)=C(N)OC3=C2C(=O)CCC3)cc1OC (stereo unspecified)	-7.5	-22.7	8.8	-0.2	0.5%	0.0
Cc1cc(C)c2nc(-c3ccccn3)cc(C(=O)n3cccn3)c2c1	-2.2	31.6	-1.6	0.6	-1.0%	-3.5
Cc1cccnc1-n1c(CCN2C(=O)c3ccccc3C2=O)nc2ccccc2c1=O	2.1	2.6	2.3	-0.9	0.3%	-5.2
CC(C)C1C(=O)Nc2ccc(S(=O)(=O)NCc3ccc(Cl)cc3)cc21 (stereo unspecified)	x	-10.1	x	-0.1	-3.8%	x
CC(=O)Nc1ccc(S(=O)(=O)Nc2nc3n(n2)C(c2ccccc2)C=C(c2ccc(Cl)cc2)N3)cc1 (stereo unspecified)	x	3.3	x	11.2	0.1%	x
CCCC(=O)C1=C(O)C(C(=O)OC)C(C)(C)CC1=Nc1cccc2ccccc12 (stereo unspecified)	-21.7	-4.2	-10.5	0.5	2.1%	-6.3
OC(CN1CCOCC1)CN(c1ccccc1)c1ccccc1 (stereo unspecified)	-15.8	-12.2	2.3	-0.8	-2.7%	-9.0
COc1cc(NC(=O)CN2CCC(C(N)=O)(N3CCCCC3)CC2)c(OC)cc1Cl	-3.8	1.4	12.4	0.0	-0.7%	-2.6
Cc1cc(=O)[nH]c(SCCc2ccccc2)n1	-5.8	4.6	8.4	-0.4	-1.4%	-4.3
CN1CCN(CCCNC(=O)c2ccc3c(=O)n(CCc4ccccc4)c(=O)[nH]c3c2)CC1	-0.2	-0.3	4.1	-0.2	3.3%	1.2
Cc1ccc(S(=O)(=O)CCC(=O)NCCC2=CCCCC2)cc1	-0.7	2.4	-3.2	-0.2	2.1%	-4.3
O=C(NC1CCS(=O)(=O)C1)c1cn(-c2ccccc2)nc1-c1ccccc1 (stereo unspecified)	-14.2	-5.1	-1.9	-0.8	0.8%	-3.5
COc1ccccc1CNC(=O)c1cnn2c(C(F)F)cc(C)nc12	11.8	2.3	-5.2	-1.1	-2.2%	-1.2
CC(=O)N/C(=C\c1ccc(F)cc1)C(=O)NC(Cc1ccccc1)C(=O)O (stereo unspecified)	-0.5	-10.9	-1.7	1.0	0.1%	0.5
CCCC(=O)O[C@@H]1C[C@@H](C)N(C(=O)c2ccccc2)c2ccc(C)cc21	-25.4	28.8	-2.7	2.0	5.8%	-4.2
O=C(N/N=C/c1ccc(Cl)cc1)c1ccc2c(c1)OCO2	-25.7	x	12.3	x	4.9%	-4.4
COc1ccc(C(=O)n2nnc3ccccc32)cc1Br	-7.4	31.2	4.7	0.6	-4.9%[38.3 µM]	-3.5
C1=C(c2ccccc2)N2CCN=C2S1	-3.0	-0.4	1.3	0.6	-1.8%[38.3 µM]	1.9
COCCNC(=O)CS(=O)Cc1nc(-c2ccc(OC)cc2)oc1C (stereo unspecified)	-3.6	17.6	-2.6	-0.1	0.9%	-3.3
C/C=C(/C)C(=O)Nc1cccc(C2=NOC3(C2)C[C@@H](C(N)=O)N(C(=O)[C@H]2CCC(=O)N2)C3)c1 (stereo partly specified)	-48.2	4.2	-1.0	-0.6	1.6%	1.5
Cc1ccc(CN(C)C[C@H]2OCc3cnnn3CCCC(=O)N([C@@H](C)CO)C[C@@H]2C)cc1	2.2	6.8	-22.9	-0.2	2.1%	-3.3
O=C(c1cccs1)c1cn(CCOc2ccc(F)cc2)c2ccccc12	x	-6.0	x	1.4	0.9%	x
CCOC(=O)N1CCN(C(=O)CCSc2ccccc2)CC1	3.2	24.0	2.5	-0.4	-0.3%	-2.2
O=C(Nc1ccccc1F)c1cc(S(=O)(=O)N2CCOCC2)ccc1N1CCOCC1	4.3	7.9	-4.9	-0.2	0.8%	-3.6
(continued)
SMILES	D2 potentiator	TRPML1 blocker	Six1-Eya2 inh	TRPML1 ag	PINK1 expr mod	D2 agonist
O=C(CN1C(=O)NC2NC(=O)NC21)N/N=C/c1ccccc1O (stereo unspecified)	-4.5	14.4	-90.5*	-0.1	1.8%	-1.0
Cc1noc(C)c1CC(=O)Nc1ccc2c(c1)OCO2	1.9	-18.4	-1.1	0.0	0.9%	-1.3
CC(=O)c1ccc(-c2cc([C@H]3[C@H]4C=CC[C@@H](C)[C@@H]4C(=O)N3Cc3ccccc3)ccc2F)cc1	-12.8	37.5	-8.6	1.2	3.1%	-4.9
CCOC(=O)c1c(-c2ccccc2)csc1NC(=O)C(C)NCc1ccco1 (stereo unspecified)	5.8	-7.8	-8.2	2.9	2.7%	2.4
NC(=O)Cn1cc(/C=N\NS(=O)(=O)c2cccc([N+](=O)[O-])c2)c2ccccc21	-18.2	25.1	5.2	0.3	3.1%	-1.9
COc1ccc(C2CC(=O)c3c(C)nc(N4CCN(Cc5ccccc5)CC4)nc3C2)cc1OC (stereo unspecified)	-13.3	18.3	-18.0	2.9	-1.0%	-1.0
COCCN(C(=O)COC(=O)Cc1c[nH]c2ccccc12)c1c(N)n(Cc2ccccc2)c(=O)[nH]c1=O	4.1	0.1	3.0	-0.5	9.8%	2.4
O=S(=O)(c1ccccc1)N1CCN(C(=S)Nc2ccccc2)CC1	-8.5	3.9	-4.7	-0.6	0.8%	-0.7
COc1ccc(CN2C3CCCC2CC(NC(=O)/C=C/c2ccccc2)C3)cc1 (stereo unspecified)	-16.8	-1.4	-4.8	0.3	-0.9%	-1.8
CCC(C)C(NC(=O)c1ccccc1)C(=O)N1CCN(C(=O)c2ccccc2)CC1 (stereo unspecified)	-7.3	-2.8	2.4	-0.8	-0.7%	-1.1
CC(=O)Nc1cccc(NC(=O)CSc2nnc3ccc(-c4cccnc4)nn23)c1	2.7	-5.9	-9.5	1.9	1.6%	-1.5
CC(C)c1ccc(CNCCSc2nnnn2-c2ccccc2)cc1	x	8.0	x	0.1	0.2%	x
O=C1C2CCCN2C(=S)N1c1ccccc1 (stereo unspecified)	-4.1	-3.2	6.4	-1.1	0.1%	-1.6
COCCn1ccc2c(OCC(=O)Nc3ccccc3F)cccc2c1=O	x	-14.4	x	-1.0	0.1%	x
COc1ccc(NC(=O)CSc2nc3nc(-c4cccs4)cc(C(F)(F)F)c3c(=O)[nH]2)c(OC)c1	5.3	-5.0	2.5	-0.1	3.5%	-0.6
CCOc1ccc(C2CC(=O)n3nc(-c4ccc(C)cc4)nc3S2)cc1 (stereo unspecified)	x	71.7	x	-0.5	0.3%	x
COc1ccc(Cl)cc1Cn1c(C)c(C(=O)NCc2ccc(C#N)cc2)sc1=O	-5.3	x	-23.2	11.0	1.1%	7.2
Cc1c(C(=O)NC(=S)NCC(C)C)oc2ccccc12	8.1	-8.6	-12.1	-0.4	13.0%	-0.3
Cc1occc1-c1nnc(SCC(=O)c2ccc(F)cc2)o1	-9.1	-1.7	-1.4	1.7	-1.7%[38.3 µM]	-0.9
O=C(COC(=O)c1ccco1)NCc1ccco1	-4.2	-1.0	-0.6	-0.7	-4.1%	-2.1
